KAT2A inh: qHTS Assay for Inhibitors of GCN5L2; Histone acetyltransferase KAT2A (Homo sapiens), Q92830; GCN5L2 HAT assay, ThioGlo1 CoA-SH fluorescence; Potency, µM (titrated, usually from 58.9 µM), for inactives: at the highest dose activity change, negative = inhibition, usual class: inhibitors; 390,000 compounds, 0.21% hits; AID 504327, 2011; active = well fitted inhibition curve with a large enough effect; inconclusive = small, poorly fitted or top-dose-only effect, or another doubt; inactive = no such curve, though single readings can be large or run the other way
Target sequence (Q92830 whole entry, looked up): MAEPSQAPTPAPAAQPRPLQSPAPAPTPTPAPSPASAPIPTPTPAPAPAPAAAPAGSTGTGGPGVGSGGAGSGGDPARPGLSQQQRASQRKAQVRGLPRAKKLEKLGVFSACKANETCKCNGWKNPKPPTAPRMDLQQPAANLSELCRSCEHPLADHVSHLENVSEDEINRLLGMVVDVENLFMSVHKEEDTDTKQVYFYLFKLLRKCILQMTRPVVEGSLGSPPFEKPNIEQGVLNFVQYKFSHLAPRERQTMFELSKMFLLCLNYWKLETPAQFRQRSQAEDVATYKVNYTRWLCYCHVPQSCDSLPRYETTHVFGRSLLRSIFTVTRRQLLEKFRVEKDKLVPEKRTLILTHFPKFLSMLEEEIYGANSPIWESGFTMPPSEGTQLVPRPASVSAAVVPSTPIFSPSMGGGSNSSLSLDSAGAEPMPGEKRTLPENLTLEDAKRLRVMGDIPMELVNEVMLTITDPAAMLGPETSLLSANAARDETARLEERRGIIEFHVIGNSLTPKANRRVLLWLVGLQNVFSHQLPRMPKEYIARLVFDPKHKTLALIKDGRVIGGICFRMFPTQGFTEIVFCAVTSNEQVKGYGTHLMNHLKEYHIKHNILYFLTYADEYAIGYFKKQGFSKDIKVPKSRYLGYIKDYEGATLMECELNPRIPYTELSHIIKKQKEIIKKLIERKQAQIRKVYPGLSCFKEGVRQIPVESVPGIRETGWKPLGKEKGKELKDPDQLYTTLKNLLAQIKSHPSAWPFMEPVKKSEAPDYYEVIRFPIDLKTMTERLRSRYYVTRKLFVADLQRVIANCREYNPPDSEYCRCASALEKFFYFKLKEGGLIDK
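Titration-based screen in which CoA formation is detected via maleimide probe ThioGlo1 (50uM) turning fluorescent on thiol reaction; substrates H3(1-25) 75uM and acetyl-CoA 70uM, GCN5L2 20nM, 20 min incubation at room temperature.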
The depositor's hits bear a star; ? = inconclusive; & = joins results of further samples. % is scaled to controls: 0 for no effect and ±100 for the full control effect; potency is read from the fitted curve at half-maximal effect. Some of the compounds tested, and most or all hits are left out here.

Preview:
| SMILES | KAT2A inh |
| --- | --- |
| CCC(=O)NC(c1ccc(OC)cc1)c1c(O)ccc2ccccc12 (centres undefined) | -2.1% |
| COc1cc(C(=O)NCc2ncccc2C)ccc1OC1CCN(C(C)=O)CC1 | -1.0% |
| O=C(Nc1ccccc1N1CCCCC1)c1ccc(N2C(=O)c3ccccc3C2=O)cc1 | -0.4% |
| O=C(CSc1nc(=O)n2ccccc2n1)N1CCCCCC1 | -3.2% |
| C=CCN=C(NC#N)SC | 16.9% |
| CC(CN1CCOCC1)C(=O)O (centres undefined) | 2.3% |

The list itself, previewed entries included:
| SMILES | KAT2A inh |
| --- | --- |
| CCC(=O)NC(c1ccc(OC)cc1)c1c(O)ccc2ccccc12 (centres undefined) | -2.1% |
| COc1cc(C(=O)NCc2ncccc2C)ccc1OC1CCN(C(C)=O)CC1 | -1.0% |
| O=C(Nc1ccccc1N1CCCCC1)c1ccc(N2C(=O)c3ccccc3C2=O)cc1 | -0.4% |
| O=C(CSc1nc(=O)n2ccccc2n1)N1CCCCCC1 | -3.2% |
| C=CCN=C(NC#N)SC | 16.9% |
| CC(CN1CCOCC1)C(=O)O (centres undefined) | 2.3% |
| CC(=O)c1ccc(NC(=O)Nc2ccc(Cl)cc2)cc1 | 0.0% |
| Cc1ccc(Br)c(NS(=O)(=O)c2cccc(C(=O)N3CCNC(=O)C3)c2)c1 | -2.7% |
| CC(OC(=O)CCCOc1ccccc1)C(=O)Nc1ccc(Cl)cn1 (centres undefined) | 0.8% |
| COc1cc(/C=C/c2[nH]c(=O)[nH]c(=O)c2[N+](=O)[O-])ccc1OCCC(C)C | -2.6% |
| CCC1(CC)C(=O)N(C)C(=O)NC1=NCc1ccccc1 | 1.2% |
| Cc1ccc(CCC(=O)Nc2ccccc2F)s1 | -2.0% |
| Cc1ccc(Cl)cc1-n1ncc2c(N3CCC(C(N)=O)CC3)ncnc21 | -16.2% |
| CC(CO)(CO)NCc1ccc(-c2ccccc2)cc1 | 2.8% |
| Cc1cc(NC(=O)CO/N=C/c2ccc3c(c2)OCO3)ccc1Br | -1.0% |
| CN(C(=O)CCc1nnc(CCCCc2ccccc2)o1)C1CC(C)(C)NC(C)(C)C1 | -1.2% |
| O=C(C1CCCN(CCCc2ccccc2)C1)N1CCCCC1 (centres undefined) | -0.3% |
| Fc1cccc(NC(=S)N2CCc3ccccc32)c1 | -3.3% |
| CCNCc1cc(Br)c(OCC(=O)Nc2ccccc2)c(OC)c1 | -2.9% |
| COc1cc(NC(=O)CCNS(=O)(=O)c2ccc3c(c2)CCN3C(=O)C2CC2)cc(OC)c1 | -7.5% |
| CCC(C)c1ccc(O)c(NC(=S)NC(=O)c2cccnc2)c1 (centres undefined) | -15.9% |
| c1ccc(-c2nn3c(C4CCCCC4)nnc3s2)cc1 | -1.8% |
| CCOc1ccccc1NC(=O)N(C)CCc1c(C)nn(CC)c1C | -3.7% |
| Cn1c(=O)n(C)c2cc([N+](=O)[O-])c(N3CCN(S(=O)(=O)c4ccccc4)CC3)cc21 | -0.9% |
| CC(NC(=O)CNC(=O)c1ccccc1F)c1ccc(-n2ccnc2)cc1 (centres undefined) | -0.7% |
| COc1ccc(CCNc2nnc(Sc3nnnn3-c3ccccc3)s2)cc1OC | -0.2% |
| O=C1CCCN1CCCNS(=O)(=O)c1ccc(Br)s1 | ? |
| COc1ccc(-c2nnn(CC(=O)N(CC(=O)NC3CCCC3)c3cccc(C)c3)n2)cc1OC | -1.5% |
| C[C@@H]1C=C(C(=O)N2CCN(Cc3ccc4c(c3)OCO4)CC2)O[C@H](OCCCCO)C1 | 8.1% |
| CC1CCN(c2nnc(-c3ccccc3)c3ccccc23)CC1 | -8.5% |
| Cc1ccc(N(CC(=O)Nc2cc(C)cc(C)c2)S(=O)(=O)c2c(C)noc2C)cc1 | -14.8% |
| COc1cccc(C(=O)Nc2nnc(CCS(=O)(=O)c3ccc(C)cc3)s2)c1 | -4.2% |
| CCN(CC)S(=O)(=O)c1ccc(NC2CCCc3ccccc32)nc1 (centres undefined) | -10.9% |
| COc1ccc(C2Nc3ccccc3C(=O)N2c2ccccc2)cc1COc1ccccn1 (centres undefined) | -4.3% |
| CCOC(=O)c1oc2ccccc2c1CN1CCOCC1 | -0.2% |
| Cc1ccc(CN(C(=O)Cn2nnc3ccccc32)C(C(=O)NCc2ccco2)c2ccc(C)o2)cc1 (centres undefined) | 1.3% |
| COc1ccc(C(=O)Nc2ccccc2C(=O)N2CCN(c3ccccc3)CC2)cc1 | -4.0% |
| CCOc1ccccc1CNC(=O)C1CCCN(c2ncnc3c2nc2n3CCCCC2)C1 (centres undefined) | -10.2% |
| O=C(NC(CC(=O)N1CCN(c2ccccc2O)CC1)c1ccccc1)c1ccccc1Cl (centres undefined) | -1.6% |
| CCN1CCN(Cc2ccccc2NC(=O)Nc2ccc(C)cc2)CC1 | -1.2% |
| Cc1ccc(-c2ccc(=O)n(C(C)C(=O)Nc3ccccc3Cl)n2)cc1C (centres undefined) | -3.1% |
| COc1ccc(CNC(=O)COC(=O)C2CCC(C(C)(C)C)CC2)cc1 (centres undefined) | -20.3% |
| CCOc1ccc(NC(=O)C(C)NS(=O)(=O)c2ccc(NC(C)=O)cc2)cc1 (centres undefined) | -11.0% |
| CC1CCc2c(sc(NC(=O)CSc3nc(N)cc(=O)[nH]3)c2C(N)=O)C1 (centres undefined) | -3.4% |
| COc1ccc2nc3oc(C(=O)N4CCCCC4)cc3cc2c1 | -3.9% |
| Cc1onc(-c2c(Cl)cccc2Cl)c1CO/N=C(\C#N)c1c(Cl)cccc1Cl | 0.4% |
| COC(=O)/C=c1/sc2n(c1=O)CCN=2 | 1.7% |
| C=C(C)Cc1c(C)c(C#N)c2nc3ccccc3n2c1N1CCCCC1 | -2.4% |
| CC(=O)c1cc(CN2CCN(CC=C(C)C)C(CCO)C2)cs1 (centres undefined) | -4.8% |
| Cc1onc(-c2ccccc2)c1C(=O)OCC(=O)NCc1ccc(F)cc1 | -9.0% |
| Cc1cccc(OCC(=O)Nc2nnn(C)n2)c1C | -8.3% |
| O=C(Cn1c(=O)oc2cc(S(=O)(=O)N3CCCC3)ccc21)NC1CCCc2ccccc21 (centres undefined) | -12.0% |
| Cc1ccc(CNC(=O)COC(=O)c2cc(C)oc2C)cc1 | -2.6% |
| CN(C(=O)Cn1cnc2sccc2c1=O)C1CCCCC1 | -1.6% |
| C=CC[C@H](CC(=O)NCCO)C(=O)N[C@H](COC(=O)[C@@H](CC=C)Cc1ccc(F)cc1)c1ccccc1 | -7.9% |
| CC1=C(C(=O)N2CCc3ccccc32)C2(CCC(C)CC2)OC1=O (centres undefined) | -2.7% |

Additional results follow.
| SMILES | KAT2A inh |
| --- | --- |
| Cn1c(=O)c([N+](=O)[O-])c(Oc2ccccc2)c2ccccc21 | -7.1% |
| Nc1nnc(SCCOc2ccc(Br)cc2)s1 | -1.9% |
| CC12CCC(C(=O)Nc3nc4ccc(Br)cc4s3)(OC1=O)C2(C)C (centres undefined) | -10.3% |
| O=C(OCc1ccccc1)N1CCc2ccccc21 | -14.1% |
| Cn1nc(C(C)(C)C)c(NC(=O)c2ccc(F)cc2)c1C(C)(C)C | -27.1% |
| CN1CCN(c2nc3c(c(=O)[nH]c(=O)n3C)n2CC(N)=O)CC1 | -4.3% |
| Cc1c(Cl)cccc1NC(=O)CCN1CCCCCC1 | 0.4% |
| Cc1ccc(CNC(=O)C2CCC(CNS(=O)(=O)c3ccc(C)cc3)CC2)cc1 (centres undefined) | -6.5% |
| COc1ccccc1NC(=O)C(NC(=O)OC(C)(C)C)C(C)OCc1ccccc1 (centres undefined) | -11.7% |
| CC(C)(C)OC(=O)C[C@@H]1C/C=C\C[C@@H](CC(=O)N[C@@H](CO)Cc2ccccc2)C(=O)N2CCC[C@@H]2COC1=O | 2.6% |
| Cn1c(=O)n(CC(=O)NCC2CCCO2)c(=O)c2c3c(sc21)COC(C)(C)C3 (centres undefined) | -0.1% |
| Nc1nc(CCl)nc(Nc2ccccc2)n1 | -0.9% |
| O=C(Nc1ccc2[nH]c(=O)[nH]c2c1)C(F)(F)F | -8.5% |
| O=C(NC1CC1)C1=C[C@@H](c2csc3ccccc23)C[C@@H](OCc2ccc(CO)cc2)O1 | -5.2% |
| Cc1ccc2c(c1)N(C(=O)Nc1cccc3c1CCCC3)CCO2 | -4.5% |
| CSc1nnnn1-c1ccc(C)c(Cl)c1 | -8.2% |
| COc1ccc(/C=C/C(=O)c2cc(Br)ccc2OC(=O)c2ccco2)cc1OC | -10.6% |
| COC(=O)c1ccc(C2C(Oc3ccccc3)C(=O)N2CCc2ccc(OC)c(OC)c2)cc1 (centres undefined) | 2.1% |
| CCC(C)Nc1nc(OCC(F)(F)F)nc(OCC(F)(F)F)n1 (centres undefined) | -2.7% |
| CCOc1ccc(OCCn2nnc3ccccc3c2=O)cc1 | ? |
| Cc1[nH]c(C)c(Cl)c(=O)c1Cl | 1.0% |
| COc1cc(C(=O)NCC(=O)N/N=C/c2ccc(-c3cccc([N+](=O)[O-])c3)o2)cc(OC)c1OC | -13.0% |
| COc1ccc(/C=N/NC(=O)c2ccc(O)cc2)cc1CN1CCCc2ccccc21 | -11.9% |
| COc1ccc(C(=O)C2CCCN(Cc3cn[nH]c3-c3ccccc3)C2)cc1OC (centres undefined) | -0.1% |
| COc1cc(NC(=S)N2CCN(C(=O)C3CCCO3)CC2)c(OC)cc1Cl (centres undefined) | -3.6% |
| CCOC(=O)CC(NC(=O)Cn1nnc(-c2ccccc2Cl)n1)c1ccc(OC)cc1 (centres undefined) | -4.7%&-5.1% |
| Cc1ccc(CC(NC(=O)c2ccccc2)C(=O)NCC(=O)O)cc1 (centres undefined) | -9.8% |
| CCCn1nnc(NC(=O)COc2ccc(C3CCCCC3)cc2)n1 | -1.1% |
| CC1Cn2cc(C(=O)Nc3ccccc3C(F)(F)F)c(=O)c3c(Cl)ccc(c32)O1 (centres undefined) | 1.3% |
| CCOc1cccc(C(=O)N(Cc2cccc(F)c2)C2CCS(=O)(=O)C2)c1 (centres undefined) | -4.6% |
| CCC(=O)N(CCC1(c2ccccc2OC)CCOC(C(C)C)C1)Cc1ccco1 (centres undefined) | -4.7% |
| O=c1c2nnn(Cc3ccccc3)c2ncn1C/C=C/c1ccccc1 | -21.3% |

Three compounds already listed, ordered by number of heavy atoms, largest number first.
| SMILES | KAT2A inh |
| --- | --- |
| COc1cc(NC(=S)N2CCN(C(=O)C3CCCO3)CC2)c(OC)cc1Cl (centres undefined) | -3.6% |
| O=c1c2nnn(Cc3ccccc3)c2ncn1C/C=C/c1ccccc1 | -21.3% |
| Cc1ccc(CC(NC(=O)c2ccccc2)C(=O)NCC(=O)O)cc1 (centres undefined) | -9.8% |

Continued:
| SMILES | KAT2A inh |
| --- | --- |
| O=C(NC1CC2CCCC(C1)N2S(=O)(=O)c1ccccc1)c1ccccc1 (centres undefined) | -3.7% |
| c1nc(NCCN2CCOCC2)c2sc3nc(N4CCOCC4)c4c(c3c2n1)CCC4 | -11.0% |
| COC(=O)c1cccc(NC(=O)C2COc3ccccc3O2)c1C (centres undefined) | -0.9% |
| O=C(C[n+]1ccc2c(c1)nnn2-c1ccccc1)c1ccc(Cl)cc1 | -4.0% |
| Cc1ccn2c(/C=N/OCc3cccc(F)c3)c(-c3ccc(Cl)cc3)nc2c1 | 1.6% |
| O=C(OCn1nnc2ccccc2c1=O)c1cc(-c2ccccc2)nc2ccccc12 | -9.2% |
| CN(C(Cc1ccc(OS(=O)(=O)c2cccc3cnccc23)cc1)C(=O)N1CCN(c2ccccc2)CC1)S(=O)(=O)c1cccc2cnccc12 (centres undefined) | -0.6%&-12.8% |
| c1csc(Cc2nc3ccccc3[nH]2)c1 | -5.5% |
| Cc1nn(CC(=O)NC2CCCCC2)c(=O)c2cc3cc(F)ccc3n12 | 0.2% |
| COc1cccc2sc(NC(=O)c3ccc(S(=O)(=O)N4CCC(C)CC4)cc3)nc12 | -7.2% |
| CCN(CC)S(=O)(=O)c1ccc2oc(C(=O)N(C)Cc3ccccc3)c(C)c2c1 | -2.4% |
| CC(C)Cn1c(=O)c2ccccc2n2c(SCC(=O)N3c4ccccc4CC3C)nnc12 (centres undefined) | -0.1% |
| Cc1nn(C)c(C)c1C(C)NC(=O)c1cc(COc2ccc(F)c(F)c2)on1 (centres undefined) | ? |
| CCOc1ccc(N(CC(=O)N2CCCCCC2)S(=O)(=O)c2ccc(C)cc2)cc1 | -23.6% |
| Cc1nc(C)c(-c2csc(Nc3cccnc3)n2)s1 | 1.1% |
| COc1ccc(NC(=O)Nc2ccc3c(c2)C(=O)N([C@H](C)CO)C[C@H](C)[C@@H](CN(C)C(=O)Nc2ccc(OC)cc2)O3)cc1 | -2.9% |
| CCOc1ccc(/C=N/NC(=O)c2ccc(Cn3cc(Br)cn3)o2)cc1 | -2.9% |
| COc1ccc(OC)c(S(=O)(=O)Nc2cc3c4c(c2)C(C)C(=O)N4CCC3)c1 (centres undefined) | -11.2% |
| O=C(CCc1ccccc1)NNC(=O)c1ccc(Cl)cc1 | -17.3% |
| Cc1ccc(S(=O)(=O)N2CCN(S(C)(=O)=O)C2c2ccccc2)cc1 (centres undefined) | -0.9% |
| FC(F)(F)c1ccc(-c2nnc(-c3cccnc3)o2)cc1 | ? |
| Cc1ccccc1CCN1CCCC(CN(C)C(=O)c2ccc3ncccc3c2)C1 (centres undefined) | -3.0% |
| CSc1nc2c(c(C(F)(F)F)n1)CC(C)CC2 (centres undefined) | 0.9% |
| Cc1cc(C)nc(NC2=NCC(=O)N2c2ccccc2Br)n1 | -1.1% |
| c1ccc2c(c1)Cn1nc(Cc3nc4c(s3)CCCC4)nc1-2 | -6.9% |
| O=C(c1cnn(-c2nc3ccccc3s2)c1)c1ccccc1O | -2.0% |
| COc1ccc(-c2cc(C)no2)cc1S(=O)(=O)N1CCN(c2ccc(C(C)=O)cc2)CC1 | -6.8% |
| N#CC1=C(N)NC(SCc2ccccc2)=C(C#N)C12CCCCC2 | -11.5% |
